# D2 PAM = Beta-Arrestin HTS for Positive Allosteric Modulators of the Human D2 Dopamine Receptor: Potentiators | D(2) dopamine receptor (Homo sapiens), P14416 | DiscoveRx D2 beta-arrestin cells, luminescence, 90 min; 100% = 57 uM dopamine signal | potentiation, % (test concentration not listed) | 0.23% of 360,000 active | AID 624464, 2012; active = potentiation of 50% or more; inconclusive = 30% to 50%; inactive = 30% or less;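 also: compound concentration not given in the record; tested on top of an EC20 dose of dopamine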
#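 D2 cells co-treated with compound plus 50 nM dopamine (EC20) for 90 min at 37 deg C to detect potentiation. Beta-arrestin recruitment was read as enzyme-fragment luminescence after 1 h at ambient temperature. Full response was set by 57 uM dopamine.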
# Sfp inh = qHTS Assay for Inhibitors of Bacillus subtilis Sfp phosphopantetheinyl transferase (PPTase); 4'-phosphopantetheinyl transferase ffp (Bacillus subtilis), Q9F4F7; Biochemical Sfp PPTase activity, qHTS; Potency, µM, for the others: max response, negative = inhibition, usual class: inhibitors; 3.5% of 310,000 active; AID 1490, 2009; active = well fitted inhibition curve with a large enough effect; inconclusive = small, poorly fitted or top-dose-only effect, or another doubt; inactive = no such curve, though single readings can be large or run the other way;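 also: the enzyme is Sfp with the accession as filed and its product quenches rhodamine fluorescence; potency is read from the fitted curve at half-maximal effect; 0% = enzyme reaction without inhibitor and -100% = no enzyme wells; top concentration of the series not given in the record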
#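 Reaction rates are the 30-min fluorescence difference (ex 525, em 598 nm) in wells containing 15 nM Sfp, 5 uM rhodamine-CoA and 12.5 uM BHQ-2-YbbR at pH 7.6 with 10 mM MgCl2.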
# TRPV1 potentiator = HTS Assay for Compounds that Act as Potentiators of the Vanilloid Receptor 1. Transient receptor potential cation channel subfamily V member 1 (Homo sapiens), Q8NER1. TRPV1-expressing cells, Fluo-8 calcium influx, capsaicin EC20 potentiation; host cell line not named in the record; control for the full effect not named in the record. potentiation, % at 8.33 µM. 0.02% of 320,000 active; active means potentiation above 80%; inconclusive means 30% to 80%; inactive means below 30%; also: 0% is about no effect
#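 Fluo-8 calcium influx in TRPV1-expressing cells, kinetic read (ex 480/em 520 nm). Compound added and read 3 min for agonist activity, followed by capsaicin at EC20 final and 2 min further read for enhancement.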
# PINK1 expr mod = A Quantitative High throughput Screen to Identify Chemical Modulators of PINK1 Expression. PINK1 immunofluorescence, high-content cytometry, 24 h. Potency, µM (titrated, usually from 76.6 µM), inactives show at the highest dose activation (PINK1 increase), most hits filed as activators. 0.2% of 410,000 active. AID 624263, 2012; active = well fitted activation curve with a large enough effect; inconclusive = small, poorly fitted or top-dose-only effect; inactive = flat fitted curve, though single readings scatter; cell line not stated here;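 also: potency is read from the fitted curve at half-maximal effect; % of control where 0% means no effect; nearly all actives have a fitted effect of over 65% in size; a mitochondrial uncoupler was the plate control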
#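 Readout is PINK1 immunofluorescence, quantified alongside mitochondrial, cell and nuclear markers by laser-scanning microplate cytometry. Cells from a stable line were exposed to compound titrations (5 concentrations) for 24 hours, with CCCP controls.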
# CtBP-E1A blk = qHTS Assay for Inhibitors of the CtBP/E1A Interaction; CtBP / adenovirus E1A interaction (AlphaScreen); AlphaScreen GST-E1A/His-CtBP binding, 1536-well; active compounds read low; control for the full effect not named in the record; activity change, % (concentration not given with the values); 0.49% of 340,000 active; AID 651724, 2012; in the data active means activity change below about -65%; inconclusive means about -30% to -65%; inactive means above about -30%; also: % is scaled to controls: 0 for no effect and ±100 for the full control effect
#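 Homogeneous bead-based format: GST-tagged E1A captured on glutathione donor beads, His-tagged CtBP on nickel acceptor beads; compounds precede bead addition by 2 h at 37 °C.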
# Six1-Eya2 blk = qHTS Assay for Inhibitors of the Six1/Eya2 Interaction; 0.56% of 360,000 active; AlphaScreen GST-Six1/His-Eya2 binding, biochemical; active compounds read low; control for the full effect not named in the record; activity change, % (no concentration beside the values); Homeobox protein SIX1 (Homo sapiens) + Protein phosphatase EYA2 (Homo sapiens), …; in the data active = activity change below about -65%; inconclusive = about -30% to -65%; inactive = above about -30%; also: % is scaled to controls: 0 for no effect and ±100 for the full control effect
# Target sequence (O00167 whole entry, looked up): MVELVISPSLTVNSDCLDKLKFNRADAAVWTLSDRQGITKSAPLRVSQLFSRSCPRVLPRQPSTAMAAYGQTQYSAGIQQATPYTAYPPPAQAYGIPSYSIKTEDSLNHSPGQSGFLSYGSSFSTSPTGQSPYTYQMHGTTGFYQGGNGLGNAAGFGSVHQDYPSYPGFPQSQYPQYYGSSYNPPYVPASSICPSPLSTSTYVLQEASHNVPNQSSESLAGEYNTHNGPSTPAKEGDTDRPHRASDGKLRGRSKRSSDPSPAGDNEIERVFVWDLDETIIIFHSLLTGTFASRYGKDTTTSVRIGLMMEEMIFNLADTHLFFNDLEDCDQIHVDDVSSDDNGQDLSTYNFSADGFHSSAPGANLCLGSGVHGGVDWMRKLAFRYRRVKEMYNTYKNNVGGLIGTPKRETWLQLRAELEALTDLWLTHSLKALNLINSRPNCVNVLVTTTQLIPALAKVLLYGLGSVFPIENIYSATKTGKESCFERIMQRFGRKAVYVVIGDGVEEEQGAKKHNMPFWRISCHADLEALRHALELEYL
# Target sequence (Q15475 whole entry, looked up): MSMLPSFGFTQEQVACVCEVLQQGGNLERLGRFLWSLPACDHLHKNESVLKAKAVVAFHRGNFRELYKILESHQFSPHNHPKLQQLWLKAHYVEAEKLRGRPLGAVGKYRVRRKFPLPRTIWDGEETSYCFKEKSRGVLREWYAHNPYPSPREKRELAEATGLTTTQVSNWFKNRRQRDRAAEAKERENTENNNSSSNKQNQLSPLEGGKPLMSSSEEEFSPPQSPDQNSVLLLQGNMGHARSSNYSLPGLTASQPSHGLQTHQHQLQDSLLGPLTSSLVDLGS
#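 AlphaScreen luminescence read after one hour at 37 °C in darkness. Pin-transferred compounds met GST-Six1 and His-Eya2 protein (5X stock 250 nM/500 nM) plus glutathione donor and Ni-chelate acceptor beads (5X, 50 ug/mL).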
# D2 agonist = Beta-Arrestin HTS for Positive Allosteric Modulators of the Human D2 Dopamine Receptor: Agonists; activation, % (concentration not given with the values); DiscoveRx PathHunter D2 beta-arrestin, luminescence, 90 min; 100% = 57 uM dopamine signal; 0.084% of 360,000 active; AID 624465, 2012; in the data active = activation above about 40%; inconclusive = about 15% to 40%; inactive = below about 15%; also: compound concentration not given in the record; the text of the record calls up to 30% inactive
#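 Agonist mode: compounds alone added to overnight-plated D2 PathHunter cells for 90 min at 37 C, with 57 uM final dopamine (EC100) defining full response. Beta-arrestin recruitment detected by chemiluminescent reagent, read after 1 h at ambient temperature.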
# * = called active by the depositor; ? = inconclusive; · = not tested or not shown; [ ] = another dose, or the depositor's remark. Not a hit list. Share with any hit: about 3.7%.
SMILES,D2 PAM,Sfp inh,TRPV1 potentiator,PINK1 expr mod,CtBP-E1A blk,Six1-Eya2 blk,D2 agonist
CC1CCCC(NC(=O)CCn2c(=O)oc3ccccc32)C1C (centres undefined),-3,20%,-7,-2.3%,3,3,-4.9
CN(C)/C=C/c1onc(-c2ccccc2Cl)c1C#N,2,-11%,-4,1.0%,-9,3,1.6
COc1cccc(CN(C)C[C@H]2OCc3cnnn3CCCC(=O)N([C@@H](C)CO)C[C@@H]2C)c1,6,·,·,-0.8%,-4,7,-1.8
COCC(=O)N1CCC2CC1c1cc(Cl)ccc12 (centres undefined),·,·,·,-0.6%,8,-1,0.2
CC(C)C1OC(c2cccc(NC(=O)c3cccs3)c2)OCC1(C)C (centres undefined),-4,30%,-7,30%,-2,9,-3.6
O=C(Nc1cc(Cl)ccc1N1CCOCC1)c1ccc(Br)o1,14,-6%,2,1.5%,4,-8,-3.0
COc1cccc(C2C(C#N)=C(N)Oc3cc(C)oc(=O)c32)c1OC (centres undefined),-24,10%,-1,0.9%,0,20,-6.4
Cc1oc2c(C)c3oc(=O)c(CCC(=O)N4CCC(C(=O)NCCC(=O)O)(c5ccccc5)CC4)c(C)c3cc2c1C,-7,21%,-2,4.2%,-21,-12,-1.1
O=C(Nc1cc(N2CCOCC2)ncn1)c1ccccc1,-4,6%,-12,-1.1%,-1,1,-0.7
CC(C)(C)OC(=O)N[C@@H](Cc1ccccc1)C(=O)NCC1CCC(C(=O)O)CC1 (some centres undefined),-12,23%,3,0.8%,·,5,-5.6
O=S(=O)(Nc1ncnc2sccc12)c1cccc(F)c1,-15,·,·,0.1%,-16,-20,-2.8
COc1ccc(C2(C(F)(F)F)NC(=O)N(C)C(=O)N2C)cc1 (centres undefined),2,25%,10,0.7%[38.3 µM],0,5,2.2
COc1ccc(NC(=O)NCCCN2CCCCC2C)cc1 (centres undefined),-6,10%,-5,-1.0%,6,1,2.1
CS(=O)(=O)N(CC(=O)NCCSCc1ccccc1)c1ccccc1Cl,-4,18%,10,-0.5%,2,6,1.4
c1coc(-c2cnc3ccccc3n2)c1,-6,·,·,0.3%,-2,0,-8.6
COCCCNC(=O)/C=C/c1ccc(OCc2c(F)cccc2Cl)cc1,-11,-6%,-14,-0.8%,-3,-3,-4.2
COc1cc(C(=S)N2CCOCC2)ccc1OC(=O)c1ccc([N+](=O)[O-])cc1[N+](=O)[O-],61*,-23%,-5,1.7%,·,-4,59*
Cc1ccc(NC(=S)N/N=C/c2c(C)[nH]c3ccccc23)cc1,-9,19%,-1,14%,-14,-14,4.6
c1ccc2c(-c3nc4ccccc4[nH]3)cccc2c1,-8,·,·,7.8%,4,9,2.2
CCOC(=O)c1cc(N2CCCCC2)nc2ccccc12,-9,·,·,19%,202,147,-4.6

# An excerpt of these results, with each value named:
> COc1cccc(C2C(C#N)=C(N)Oc3cc(C)oc(=O)c32)c1OC (centres undefined)
  D2 PAM: -24; Sfp inh: 10%; TRPV1 potentiator: -1; PINK1 expr mod: 0.9%; CtBP-E1A blk: 0; Six1-Eya2 blk: 20; D2 agonist: -6.4

> Cc1oc2c(C)c3oc(=O)c(CCC(=O)N4CCC(C(=O)NCCC(=O)O)(c5ccccc5)CC4)c(C)c3cc2c1C
  D2 PAM: -7; Sfp inh: 21%; TRPV1 potentiator: -2; PINK1 expr mod: 4.2%; CtBP-E1A blk: -21; Six1-Eya2 blk: -12; D2 agonist: -1.1

> O=C(Nc1cc(N2CCOCC2)ncn1)c1ccccc1
  D2 PAM: -4; Sfp inh: 6%; TRPV1 potentiator: -12; PINK1 expr mod: -1.1%; CtBP-E1A blk: -1; Six1-Eya2 blk: 1; D2 agonist: -0.7

> CC(C)(C)OC(=O)N[C@@H](Cc1ccccc1)C(=O)NCC1CCC(C(=O)O)CC1 (some centres undefined)
  D2 PAM: -12; Sfp inh: 23%; TRPV1 potentiator: 3; PINK1 expr mod: 0.8%; CtBP-E1A blk: ·; Six1-Eya2 blk: 5; D2 agonist: -5.6

# The listing continues.
SMILES,D2 PAM,Sfp inh,TRPV1 potentiator,PINK1 expr mod,CtBP-E1A blk,Six1-Eya2 blk,D2 agonist
CC(=O)Oc1ccc2c(=O)c(-c3ccccc3)c(C)oc2c1,0,-1%,18,-0.4%,-7,-7,0.4
CCC1(C)Cc2ccccc2-c2nc(NCCCO)n(-c3ccccc3)c(=O)c21 (centres undefined),-14,-2%,-9,-0.3%,1,-3,-6.0
CCOc1ccccc1N1CCN(C(=O)NCc2ccc(Cl)cc2)CC1,-6,-6%,?,0.1%,3,-2,3.0
COCc1ccc(C(=O)N2CCCC(Nc3ccc(C(C)C)cc3)C2)s1 (centres undefined),-14,3%,-4,-0.5%,-10,-25,-5.5
CCOc1ccc(NC(=O)c2ccccc2O)cc1,-38,-10%,2,-0.5%,5,-1,-4.1
c1ccc2c(-c3nn[nH]n3)cccc2c1,0,10%,6,5.3%,2,7,-0.8
O=C(COC(=O)c1ccc(F)cc1F)Nc1ncccn1,-1,-5%,14,-0.7%,-18,?,-0.9
CC1(C)CC(=O)C=C(c2cc3ccccc3s2)C1,-6,·,·,0.4%,4,1,-0.6
Cc1ccc(C)c(NC(=O)CSc2nnc(CCNC(=O)OC(C)(C)C)o2)c1,0,21%,29,-1.4%,-2,7,-1.0
COc1ccc(OCC(=O)Nc2ccccc2N2CCCCC2)cc1,-2,?,-10,5.5%,21,3,1.5
Cc1cccc(-c2cnc3cccnn23)c1,-6,·,·,-0.4%,17,12,-3.1
O=C(NC(=S)NCCN1CCOCC1)c1ccccc1,0,15%,-17,0.1%,0,-8,-2.7
O=C(CC(c1ccccc1)c1cc(Br)ccc1O)N1CCCC1 (centres undefined),-9,0%,-15,-1.1%,-10,-3,-2.2
Cc1cccc(N2C(=O)CC(Sc3ccccc3C(=O)O)C2=O)c1 (centres undefined),-14,56µM*,0,1.4%,-2,-10,-2.6
CCc1noc(C)c1C(=O)Nc1ccc(C#N)cc1,-7,·,5,-2.0%,12,30,-7.9
CCOC(=O)[C@@H]1[C@H]2COc3ccccc3[C@@H]2N2C(=O)N(c3cccc(Cl)c3)C(=O)[C@@]12C,-33,11%,-2,2.9%,-4,-1,0.1
COc1ccc(C(=O)Cn2c(NCCO)nc3ccccc32)cc1OC,-5,21%,-9,-6.3%[38.3 µM],6,3,0.0
Cc1cc(C)cc(C(=O)OCC(=O)NCCNC(=O)COC(=O)c2cc(C)cc(C)c2)c1,-4,15%,-11,6.7%,7,7,-1.6
Clc1cc(-c2ccc(/C=N/n3cnnc3)o2)ccc1Br,-2,-11%,3,2.9%,2,1,-1.3
COC(=O)c1c(NC(=O)CN2C(=O)NC3(CCC(C)CC3)C2=O)sc2c1CCC2 (centres undefined),-1,·,15,4.7%,-22,-3,1.7
O=C(N/N=C1/CC2C=CCC12)c1ccco1 (centres undefined),-3,-9%,-20,1.9%,-2,2,-2.2
O=C(c1ccccc1)c1cccc(NC(=O)c2ccc(Br)o2)c1,-20,16%,3,0.6%,-11,-13,-4.2
O=C(Nc1cccc(-c2csc(-c3ccccc3)n2)c1)c1cccs1,7,25%,12,·,11,-1,1.4
CC(C)(C)c1ccc(C(=O)OCC(=O)N2CCC(c3ccccc3)=N2)cc1,0,·,-6,1.5%,0,13,2.8
Cn1cc(C(=O)c2ccc(Cl)cc2Cl)cc1C(=O)N/N=C(\N)COc1ccc(F)cc1,10,25%,9,1.3%,-7,-7,-2.0
Cc1[nH]n(-c2ccccc2)c(=O)c1C(=O)Nc1ccccc1,-10,7%,0,2.2%,6,6,-4.0
NNC(=O)C1CC1(c1ccccc1)c1ccccc1 (centres undefined),-5,10%,·,2.3%,-2,-12,-4.5
Cc1ccc(C)c(Nc2nc(-c3cccnc3)cs2)c1,-3,-15%,?,-1.3%,-8,-10,5.6
Cc1cccc(C)c1NC(=O)c1cccnc1,-5,7%,-21,1.6%,-9,13,2.5
FC(F)(F)c1ccc2c(c1)C1C=CCC1C(c1ccncc1)N2 (centres undefined),8,-7%,-14,?,-3,-7,0.2
COC(=O)C(C)Sc1nc2c(cnn2-c2ccc(Cl)cc2)c(=O)[nH]1 (centres undefined),-8,13%,1,2.6%,3,5,-1.2
Cc1ccc(S(=O)(=O)N(C)C)cc1NC(=S)NNC(=O)C1CC1,-18,5%,1,-0.6%,4,11,-3.1
Cc1cccc(N(C(=O)CCC(=O)Nc2cc(C)on2)C(C(=O)NC2CCCC2)c2cccnc2)c1 (centres undefined),-5,13%,-9,0.6%,-7,7,-2.6
CCN(C[C@H]1N[C@@](Cc2ccccc2)(C(=O)OC)[C@H]2C(=O)N(C)C(=O)[C@@H]12)C(=O)Nc1ccccc1,-6,·,·,0.2%,-3,0,-4.0
O=C1[C@H]2[C@@H](C(=O)N1c1cccc3ccccc13)C1(C(=O)c3ccccc3C1=O)N1CCC[C@@H]21,-1,?,11,-1.1%,-4,-1,-1.0
O=C(O)c1ccc(N2CCCS2(=O)=O)cc1,5,16%,11,4.0%,0,2,-2.0
Cc1nnc(Sc2cc(C(=O)NCCCN(C)Cc3ccccc3)c3ccccc3n2)s1,-8,17%,-4,10%,0,-3,-2.3
COc1ccc(/C(N)=N/O)c(OC)c1,-2,19%,-1,-2.0%,-3,0,-0.1
CCSc1nnc(NC(=O)C2C3C=CC(C3)C2C(=O)O)s1 (centres undefined),-13,8%,12,?,4,4,-1.6
Cc1cc2cc(CNC(=O)c3ccc(S(=O)(=O)N4CCCCC4)cc3)ccc2n1C,-4,?,?,12%,-6,6,-5.8
C=CCn1c(SCC(=O)N2CCCC2=O)nc2sc(CC)cc2c1=O,16,·,-15,1.3%,-6,0,1.3
Nc1ccccc1Nc1cc(-c2cccc(Cl)c2)nn1-c1ccccc1,68*,15%,-11,3.4%,4,?,?
N#C/C(=C\c1cc([N+](=O)[O-])c(N2CCOCC2)cc1N1CCOCC1)c1nc2ccccc2[nH]1,-16,-1%,5,2.0%,-29,?,-5.9
